# FGF22 binding – FGF22 (human) thermal shift binding; Q9HCT0; recombinant FGF22 thermal shift, SYPRO orange fluorescence; percent of sucrose octasulfate shift, DMSO zero; calls only at 9.99 µM; 340,000 tested, 1.5% active;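 active = melting point raised past a set limit in the mean and every replicate; inconclusive = no clear call; three in four hits are not shown here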
# Target sequence (Q9HCT0 whole entry, looked up): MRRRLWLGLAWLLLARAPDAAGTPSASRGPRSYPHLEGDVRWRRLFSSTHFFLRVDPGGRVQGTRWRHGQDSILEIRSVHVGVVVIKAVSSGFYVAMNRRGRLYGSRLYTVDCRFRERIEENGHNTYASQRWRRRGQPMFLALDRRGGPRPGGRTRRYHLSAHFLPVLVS
# UCH37 inh – human UCH37 deubiquitinating enzyme inhibition. purified proteasome/UCH37, Ub-AMC cleavage fluorescence. inhibition, % (concentration not given with the values). 330,000 tested, 0.33% active. AID 588478;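 active = mean of two replicates above 20%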;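 note: 0% = compound-free wells with enzyme and 100% = wells lacking proteasome; stock transfer was 100 nL into about 20 µL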
# Target sequence (Q9Y5K5 whole entry, looked up): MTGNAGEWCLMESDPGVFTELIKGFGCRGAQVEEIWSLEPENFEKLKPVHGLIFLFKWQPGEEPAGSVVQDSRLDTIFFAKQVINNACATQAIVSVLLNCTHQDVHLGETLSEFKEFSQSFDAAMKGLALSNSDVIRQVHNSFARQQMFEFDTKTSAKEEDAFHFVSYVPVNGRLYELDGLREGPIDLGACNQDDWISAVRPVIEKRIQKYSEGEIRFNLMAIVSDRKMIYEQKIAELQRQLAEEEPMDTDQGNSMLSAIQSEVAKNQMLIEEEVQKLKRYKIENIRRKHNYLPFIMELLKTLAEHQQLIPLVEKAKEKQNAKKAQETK
#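 Material: human UCH37 enzyme supplied as purified proteasome complex / Amount: 0.15 nM proteasome as dispensed / Buffer or medium: pH 7.4 Tris-HCl (50 mM) with ovalbumin, ATP-MgCl2, DTT / Times: preincubation 30 min, reaction 25 min, room temperature / Technique: AMC fluorescence from Ub-AMC cleavage, excitation 355 nm, emission 460 nm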
# Bfl-1 A1 inh – inhibitors of the anti-apoptotic protein A1, read as caspase activation | MEF A1-2A-BIM cells, Caspase-Glo 3/7 luminescence, 3 h; percent of clofoctol response, vehicle zero | caspase activation, % (no concentration beside the values) | 330,000 tested, 0.066% active | AID 2462;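 active = over half of replicate activation scores above 10%, or exactly half above 10 with the replicate mean above 10; inconclusive = replicate mean below 10 yet half the replicates above 10; inactive = over half of replicates below 10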;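 note: wells of about 30 µL received 50 nL stock; many hits fall short of the cut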
# Ecoli rRNA inh – selective bacterial rRNA inhibition in E. coli | E. coli WT GFP vs humanized-ribosome RFP mutants, fluorescence, 24 h; stronger effect = lower value; DMSO median 0, no signal -100 | GFP signal change (wild-type ribosome), % (no concentration beside the values) | 350,000 tested, 1.6% active;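 active = significant combined selectivity score with lowered wild-type GFP, culture density cut under 30%, mutant RFP and density less affected; inactive = any of these conditions unmet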; note: one replicate is shown; some compounds called inactive have numbers as strong as hits
# MLL AF4-AF9 inh – inhibitors of human MLL-AF4/AF9 interaction; AlphaScreen, biotin-AF4 peptide binding to FLAG-AF9; inhibition, % at 10 µM; 350,000 tested, 0.47% active; AID 651704;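 active = every replicate reaching a set inhibition limit, whatever the replicate mean, cut at about 25% in these data; inconclusive = mean inhibition reaches that limit but some replicates miss it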;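 note: 0% = plate neutral control median and 100% = total signal loss; the record names both 10 and 1 µM as test concentration; the first replicate is given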
# Target sequence (P42568 whole entry, looked up): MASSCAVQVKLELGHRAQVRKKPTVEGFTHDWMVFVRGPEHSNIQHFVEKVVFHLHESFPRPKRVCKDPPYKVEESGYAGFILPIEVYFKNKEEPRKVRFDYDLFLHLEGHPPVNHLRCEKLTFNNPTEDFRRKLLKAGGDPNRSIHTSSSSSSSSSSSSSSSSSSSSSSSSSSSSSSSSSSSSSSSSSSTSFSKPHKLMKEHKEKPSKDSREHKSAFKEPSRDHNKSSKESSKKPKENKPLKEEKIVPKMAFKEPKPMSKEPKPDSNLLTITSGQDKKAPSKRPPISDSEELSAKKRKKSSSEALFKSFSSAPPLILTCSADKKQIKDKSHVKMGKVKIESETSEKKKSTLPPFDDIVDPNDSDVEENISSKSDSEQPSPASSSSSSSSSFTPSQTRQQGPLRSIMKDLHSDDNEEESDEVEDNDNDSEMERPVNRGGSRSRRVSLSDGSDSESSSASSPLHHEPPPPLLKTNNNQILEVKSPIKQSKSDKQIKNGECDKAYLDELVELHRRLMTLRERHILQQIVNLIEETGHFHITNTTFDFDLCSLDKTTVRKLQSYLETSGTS
# Beta apoptosis – blocks beta cell apoptosis; protection from apoptosis, % (no concentration beside the values); AID 435005; 300,000 tested, 0.8% active; INS-1E cytokine-induced death, ATP luminescence, 48 h; percent of positive-control rescue, neutral wells zero;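 active = all replicates at 75% or more, or half of them and the mean; inconclusive = half reach 75% but not the mean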;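 note: 0% = cytokine-treated negative control wells and 100% = positive control rescue; higher means more ATP so stronger rescue from cytokine killing; wells of about 40 µL received 100 nL stock; the first replicate is given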
# E coli growth – blocks Escherichia coli growth; OD600, 23 h; stronger effect = lower value; OD600 absorbance (test concentration not listed); 330,000 tested, 0.21% active;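 active = OD600 absorbance below the run mean of sample wells minus 3.6 SD, in any replicate, cut at about 0.56 in these data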;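 note: stock transfer was 300 nL into about 60 µL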
# T cruzi inh – T. cruzi replication inhibition. inhibition, % (test concentration not listed). 300,000 tested, 1.4% active. T. cruzi beta-gal in NIH3T3, luminescence, 90 h. AID 1885;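 active = mean inhibition across valid replicates above about 55%, limit read from the data; inconclusive = mean below that limit but half or more replicates reach it; inactive = mean below it, under half of replicates reach it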;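 note: signal also drops with host cell toxicity which is not excluded here; 0% = plate median of DMSO wells and 100% = zero luminescence signal; higher percent means less beta-gal luminescence so fewer parasites; stock transfer was 50 nL into about 50 µL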
# Ecoli rRNA inh OD600 – recorded beside Ecoli rRNA inh, whose call it bears; OD600 change, %; measured here: OD600 growth;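 optical density of the mix in the first replicate; 0 = DMSO median and -100 = no signal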
# Ecoli rRNA inh RFP – recorded beside Ecoli rRNA inh, whose call it bears; RFP signal change, %; measured here: RFP humanized mutant strains;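 first replicate; 0 = DMSO median and -100 = no signal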
# An asterisk follows results filed as active; i = inactive; ? = inconclusive; nt = no result given.
# Start of the data: the first two records (preview)
SMILES,FGF22 binding,UCH37 inh,Bfl-1 A1 inh,Ecoli rRNA inh,Ecoli rRNA inh OD600,Ecoli rRNA inh RFP,MLL AF4-AF9 inh,Beta apoptosis,E coli growth,T cruzi inh
COc1ccc(-c2nc3c(c(SCC(=O)N4CCCC4)n2)COC(C)(C)C3)cc1,i,0.0,1.4,0,3,-4.2,-0.4,2,0.73,6
O=C(CCc1nnc2ccc(NCc3ccco3)nn12)N1CCCCC1,i,-0.5,0.2,2,8,6.9,-1.2,nt,0.69,-11

# This part in full, from the start:
SMILES,FGF22 binding,UCH37 inh,Bfl-1 A1 inh,Ecoli rRNA inh,Ecoli rRNA inh OD600,Ecoli rRNA inh RFP,MLL AF4-AF9 inh,Beta apoptosis,E coli growth,T cruzi inh
COc1ccc(-c2nc3c(c(SCC(=O)N4CCCC4)n2)COC(C)(C)C3)cc1,i,0.0,1.4,0,3,-4.2,-0.4,2,0.73,6
O=C(CCc1nnc2ccc(NCc3ccco3)nn12)N1CCCCC1,i,-0.5,0.2,2,8,6.9,-1.2,nt,0.69,-11
CCC(=O)N(Cc1c(C)nn(-c2ccccc2)c1Cl)c1ccc(Cl)cc1,i,4.5,0.2,-10,-6,-1.0,0.5,26,0.68,9
CCn1c(=O)cc(SCC(=O)N2CCN(C3CCCCC3)CC2)c2ccccc21,nt,-6.1,0.5,nt,nt,nt,nt,-10,0.72,28
COc1ccc(Br)cc1C1CC(=O)C(C)C(c2cc(Br)ccc2OC)N1 (stereo not given),i,2.8,-0.8,13,-4,0.4,2.2,-2,0.69,14
CCc1cc(=O)oc2c3c(cc(OCC(=O)NC4CC4)c12)OC(C)(C)CC3,i,i,0.4,nt,nt,nt,?,9,0.68,15
N#Cc1ccc(-c2cccnc2)nc1SCC(=O)c1ccccc1,i,-0.9,-1.4,nt,nt,nt,1.5,-1,0.62,20
O=S(=O)(c1ccc(Br)cc1)N1CCN(c2cc(-c3ccccc3)nc3ncnn23)CC1,i,-6.3,0.3,10,16,-0.7,6.9,11,0.72,8
CNC(=S)N(CCc1c(C)[nH]c2ccc(C)cc12)Cc1ccco1,i,4.4,0.5,-3,-1,3.6,3.3,-13,0.71,-6
NC(=O)CSCc1ccc(Br)cc1,nt,1.8,-0.4,nt,nt,nt,nt,-7,0.7,-8
Cc1cc(S(=O)(=O)Nc2ccc(C(=O)NCC3(N4CCCCC4)CCCCC3)cc2)ccc1F,i,4.4,0.7,4,-1,1.7,0.0,-3,0.62,-6
O=C(CSc1nnnn1-c1ccc2c(c1)CCC2)Nc1ccc2c(c1)OCCO2,nt,0.9,0.3,nt,nt,nt,nt,-5,0.69,-18
N/C(=N\c1nc2c(c(=O)[nH]1)CCC2)Nc1cccc2ccccc12,nt,1.5,0.0,nt,nt,nt,nt,7,0.79,-2
Cc1sc2c(c1C)C(O)=C(C(=O)Nc1ccccc1)S(=O)(=O)N2C,i,9.9,-0.4,-34,-48,-4.3,-0.7,1,0.62,-7
CNC(=S)N1N=C(c2ccc(C)cc2)CC1c1ccc(Br)cc1 (stereo not given),nt,4.1,-4.7,nt,nt,nt,nt,4,0.77,33
CCCN(CC(=O)Nc1ccccc1C)C(=O)C1CCN(S(=O)(=O)c2cccc(C(F)(F)F)c2)CC1,i,1.5,0.4,1,-7,2.4,9.5,7,0.71,-6
Cc1sc2nc(CN(C(=O)NC3CCCCC3)C3CCCCC3)[nH]c(=O)c2c1C,nt,-8.7,1.0,nt,nt,nt,nt,5,0.72,-5
CCOCCN(C=O)c1cccc(OC)c1,nt,-0.7,-0.6,nt,nt,nt,nt,-2,0.68,-10
CC(=O)c1cccc(NC(=O)/C(=C/c2ccncc2)NC(=O)c2ccccc2)c1,i,nt,1.3,10,5,1.7,-0.5,-1,nt,-7
COCCCC1CCN(C(=O)C2CCC(=O)N(Cc3cccc(F)c3)C2)CC1 (stereo not given),i,2.7,-1.4,-1,4,0.0,-5.5,-6,0.63,-1
COc1ccc(-c2nnc(SCC(=O)NCc3cccs3)n2C)cc1,nt,6.7,0.5,nt,nt,nt,nt,-7,0.64,-7
O=C(O)c1cccc(N2C(=O)c3cc4cccc(Br)c4cc3C2=O)c1,i,-8.9,0.7,15,-1,-0.5,-1.7,0,0.7,-10
O=C(CSc1nc2c(c(=O)n1-c1ccc(Cl)cc1)SCC2)Nc1nccs1,nt,0.3,0.0,nt,nt,nt,nt,0,0.74,nt
CCCCN(C(=O)c1ccc(C)o1)c1c(N)n(CC(C)C)c(=O)[nH]c1=O,i,-2.5,-0.4,nt,nt,nt,-0.4,-2,0.71,nt
CCN(C(=O)COC(=O)c1cc(-c2ccccc2)nc2c1c(C)nn2-c1ccc(C)cc1)C1CCS(=O)(=O)C1 (stereo not given),i,-15,-0.7,20,9,2.9,1.7,3,0.73,12
CCOC(=O)[C@@H]1[C@H]2COc3cc(OC)ccc3[C@@H]2N2C(=O)N(c3cccc(Cl)c3)C(=O)[C@@]12C,nt,2.7,0.7,nt,nt,nt,nt,-10,nt,-2
N#C/C(=C/c1cn(CC(=O)O)c2ccccc12)c1ccc(F)cc1,nt,14,-1.0,nt,nt,nt,nt,0,0.68,-2
Cc1nn(-c2ccccc2)c(C)c1C(=O)OCC(=O)Nc1ccc2c(c1)OCO2,nt,4.0,-0.5,nt,nt,nt,nt,3,0.62,14
COc1cc(/C=N/NC(=O)c2cn(-c3cccc(C)n3)cn2)ccc1O,i,nt,0.3,-37,-48,6.0,-2.1,0,nt,-9
COc1cc2c(cc1OC)-c1nnc(C)n1C(C)(C)C2,nt,0.9,0.0,nt,nt,nt,-3.2,5,0.7,-4
COc1cccc(CCC(=O)O)c1OC,nt,1.7,-0.4,nt,nt,nt,nt,2,0.69,7
CN1CCN(C(=S)c2cn(Cc3ccc(F)cc3)c3ccccc23)CC1,i,5.6,-0.3,-41,-63,6.3,31*,2,0.69,-1
O=C(Cn1cncn1)N/N=C/c1ccccc1Cl,i,nt,0.4,12,8,2.3,-0.7,1,nt,3
Cn1c(SCC(=O)c2ccc(O)c(O)c2)nnc1-c1ccccc1,i,8.3,1.0,2,-1,-3.5,-20,-7,0.68,-12
C/C(=N\NC(=O)Cc1c(F)cccc1Cl)c1cccnc1,i,nt,2.0,1,-1,0.6,0.8,-1,nt,-14
Cc1cc(-c2ccc(Cl)cc2)n2ncnc2n1,i,-6.3,-0.3,16,7,2.6,-2.3,-1,0.65,-5
CCOc1cc2c(cc1OCC)C(c1ccccc1)N(c1ccc(C(=O)O)cc1)C(=O)C2 (stereo not given),i,8.6,0.0,6,3,-5.5,-1.1,-2,0.73,2
Cc1ccc([C@@H]2[C@@H]3C(=O)N(C)C(=O)[C@@H]3[C@@H]3C(=O)Nc4ccccc4C(=O)N23)cc1,i,-3.5,-0.7,8,5,3.6,-1.5,6,nt,-24
CCOc1ccc(-n2c(=O)[nH]c3sc4c(c3c2=O)CCCC4)cc1,i,0.9,-0.1,20,8,-1.0,-5.2,2,0.68,7
COc1ccc(CN2C(=O)NC3(CCCC3)C2=O)cc1F,i,1.0,-0.1,15,10,2.0,-0.7,-2,0.67,-1
Brc1ccccc1-c1nc(-c2ccccc2)no1,nt,-1.3,0.2,nt,nt,nt,nt,11,0.77,-1
CO/N=C/C(c1ncc(C(F)(F)F)cc1Cl)S(=O)(=O)c1ccccc1 (stereo not given),i,nt,0.8,0,-3,-2.0,-1.8,2,nt,-7
COc1ccccc1OCC(=O)NCCC1=CCCCC1,nt,1.5,0.1,nt,nt,nt,nt,6,0.7,0
O=C1CCC/C=C/C[C@H](CC(=O)N(CCO)Cc2ccccc2)C(=O)N[C@@H](Cc2ccccc2)CO1,nt,3.0,-1.2,8,9,9.4,1.3,1,nt,nt
O=C(CN1C(=O)NC2(CCCCCC2)C1=O)N1CCCCC1,i,-1.1,0.2,6,13,3.5,-1.5,2,0.64,nt
O=C1CC(N2CCOCC2)C(=O)N1CCc1ccccc1 (stereo not given),nt,-2.4,1.1,nt,nt,nt,nt,-2,0.71,-14
CC(C)(Oc1ccc(Cl)cc1)C(=O)Nc1cccnc1,nt,-5.7,0.6,nt,nt,nt,nt,9,0.74,-21
Cc1cccc(OCc2nc(C#N)c(N3CC(C)CC(C)C3)o2)c1 (stereo not given),i,3.9,0.5,-9,4,0.2,21,-3,0.71,28
COc1ccc(/C=C2/CCc3ccccc3C2=O)cc1OC,nt,4.4,-0.5,nt,nt,nt,nt,0,0.66,-18
CCCc1nn(C)c(C(N)=O)c1[N+](=O)[O-],i,1.4,0.5,6,10,2.5,-1.8,-5,0.73,5
CN(C)NC(=S)Nc1ccc(S(=O)(=O)N2CCCCC2)cc1,i,0.8,0.5,15,4,3.2,nt,0,0.71,-13
C[C@@H](C(=O)Nc1cccnc1)n1c(=O)[nH]c2ccccc2c1=O,i,-2.8,0.4,11,9,-0.1,-0.3,-3,0.71,-9
COCCCNCCOCCOc1c(OC)cccc1OC,nt,16,0.1,nt,nt,nt,nt,-1,0.7,25
Cc1cc(NC(=O)c2ccccc2F)ncc1NC(=O)c1cccs1,i,-1.3,-6.2,-1,-1,-0.4,-0.8,-1,0.68,7
CCOc1cc(/C=N/Nc2nc(Nc3ccccc3)nc(N3CCCCC3)n2)ccc1OCC(=O)O,i,nt,-0.2,13,9,-0.8,0.0,-9,nt,8
CC1CC(C)CN(C(=O)Cn2c(=O)n(CCCC(=O)NCc3ccco3)c(=O)c3sccc32)C1 (stereo not given),i,-0.5,-0.1,-3,6,-3.9,1.6,1,0.68,0
O=C(COc1ccc(Cl)cc1)OCC(=O)c1ccc[nH]1,i,2.6,-0.2,12,3,1.5,-0.6,10,0.68,nt
CC(=O)Nc1ccc(C(=O)NCC2(N3CCCCC3)CCCCC2)cc1,i,-0.4,2.5,1,15,2.3,-5.8,-9,0.71,-7
O=C(NCCOc1ccccc1)c1cc(C(=O)NCCOc2ccccc2)cc([N+](=O)[O-])c1,nt,6.0,0.0,nt,nt,nt,nt,3,0.69,68*
Cc1c(NC(=O)COC(=O)C2=COCCO2)cccc1[N+](=O)[O-],i,4.3,0.4,5,8,0.1,-7.8,-4,0.71,-3
# (continued)
SMILES,FGF22 binding,UCH37 inh,Bfl-1 A1 inh,Ecoli rRNA inh,Ecoli rRNA inh OD600,Ecoli rRNA inh RFP,MLL AF4-AF9 inh,Beta apoptosis,E coli growth,T cruzi inh
Cc1nc(CNS(=O)(=O)c2cccc(F)c2)cs1,nt,1.6,0.2,nt,nt,nt,nt,-7,0.65,0
COc1cc(CCNC(=O)c2ccccc2NC(=O)C2=C(C)OCCS2)cc(OC)c1OC,i,5.5,0.4,-4,-6,-2.7,4.5,1,0.7,5
Cc1cc(N2CCOCC2)c2c(N)c(C)cc(C)c2n1,nt,5.7,-0.4,nt,nt,nt,nt,-9,0.73,nt
O=C(NCC1CCCO1)c1ccccc1-c1nc(-c2ccccc2Cl)no1 (stereo not given),i,-0.2,-1.2,-11,-7,2.1,1.0,5,0.63,11
CC1=C(C(=O)NC2CCCc3c2cnn3-c2ccc(F)cc2F)OCCO1 (stereo not given),i,0.8,0.7,12,4,2.7,-0.8,9,0.65,-10

# Screening results as filed in PubChem BioAssay.

# Only part of the results is shown. The share of hits here may be higher or lower than overall.
